HCMV NEC inh: cytomegalovirus nuclear egress complex inhibition. HTRF UL50-UL53 interaction, normalized percent inhibition. 0.15% of 190,000 active. inhibition, % (test concentration not listed);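 active means both replicates at 50% or more, plus weaker picks with an unusually low signal ratio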;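 further: stock transfer was 100 nL into about 20 µL; 0% = negative control wells and 100% = wells with untagged competitor protein; inactives centre near -12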
Sa growth 42C: blocks Staphylococcus aureus growth; S. aureus RN4220 growth, OD600, 20 h, 42 °C; active compounds read low; relative growth, % (concentration not given with the values); 0.53% of 170,000 active;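 active means growth at 42 °C up to 50% and 20 or more points under that at 30 °C, or under 10% at both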;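 further: 300 nL library stock went into each well; scaled to the means of positive and negative controls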
GIV-Gai inh: blocks GIV peptide binding to rat Galpha-i3. P08753. Galpha-i3/FITC-GIV peptide fluorescence polarization, 90 min; active compounds read low; scaled: aluminum fluoride 0%, vehicle 100%. percent of control (FP), % (no concentration beside the values). 0.42% of 210,000 active. AID 1224905;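 active means replicate mean at 85% of control or lower, very high polarization wells dropped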;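 further: wells of about 15 µL received 100 nL stock; the first replicate is given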
Target sequence (P08753 whole entry, looked up): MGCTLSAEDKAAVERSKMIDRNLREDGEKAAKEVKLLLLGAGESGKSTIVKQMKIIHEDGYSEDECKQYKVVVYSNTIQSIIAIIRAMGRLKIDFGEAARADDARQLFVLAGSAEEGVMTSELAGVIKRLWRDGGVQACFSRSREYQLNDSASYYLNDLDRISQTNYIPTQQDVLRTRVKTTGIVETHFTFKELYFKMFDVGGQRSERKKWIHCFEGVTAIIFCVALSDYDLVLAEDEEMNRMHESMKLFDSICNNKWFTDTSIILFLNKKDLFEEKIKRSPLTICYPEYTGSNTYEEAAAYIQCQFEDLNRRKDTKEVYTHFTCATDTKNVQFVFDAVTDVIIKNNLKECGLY
Sa growth 42C second temp: further read-out of Sa growth 42C, marked with its call; relative growth, %; measured here: growth at 30 °C;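 optical density after 20 h as mean of two plates; 100% = untreated growth and lower means inhibition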
* = called active by the depositor; / = no result given; & = joins results of further samples.

SMILES | HCMV NEC inh | Sa growth 42C | Sa growth 42C second temp | GIV-Gai inh
CC(Oc1ccc(C(C)C)cc1)C(=O)Nc1ccc2c(c1)NC(=O)CO2 (configuration not stated) | -3 | / | / | 102
Fc1cccc(Cl)c1-n1cccc1 | -36 | 91 | 84 | 108
CC1=NCCN1S(=O)(=O)c1c(C(C)C)cc(C(C)C)cc1C(C)C | -4 | 126 | 91 | /
CC1CCCCC1NC(N)=O (configuration not stated) | -10 | 84 | 88 | /
CCn1c(CNC(=O)Cc2ccc(OC)cc2)nnc1SCCOc1ccccc1 | 9 | 107 | 105 | 107
CCOCCCNC(=O)CN1C(=O)COc2ccc(S(=O)(=O)N3CCCC3)cc21 | -19 | 106 | 95 | 104
CCc1ccc(S(=O)(=O)n2cnc(C)c2)cc1 | -3 | / | / | 106
FC(F)(F)c1nc2ccccc2nc1NCc1cccnc1 | -4 | / | / | 108
Cc1nc2cc(C(=O)N3CCN(C)CC3)ccc2n1-c1ccccc1 | 19 | 103 | 94 | 110
CC(C)CNC(=S)N(C)N | 2 | 72 | 89 | /
Cc1cc(-n2nc(C)cc2C)nc(N)n1 | -8 | / | / | 101
O=C(Nc1ccccc1)Nc1nc(=O)c2ccccc2s1 | -18 | 80 | 82 | /
CCC(=O)N1CCc2cc(S(=O)(=O)NCCC(=O)Nc3ccc(C)cc3)ccc21 | -25 | 102 | 92 | 105
CCOC(=O)C1CCN(c2csc3ccccc3c2=O)CC1 | -89 | 110 | 71 | 107
O=C1COc2cc(S(=O)(=O)N3CCCCCC3)ccc2N1 | / | 102 | 91 | 93
COc1ccc(OC)c2sc(N(Cc3cccnc3)C(=O)c3ccc(C(C)=O)cc3)nc12 | / | 85 | 71 | 102
NC(=O)CSc1nnc(CSc2nc3ccccc3s2)n1Cc1ccccc1 | -19 | 104 | 91 | /
CC(=O)Nc1cccc(NC(=O)C2CC(=O)N(C3CCCCC3)C2)c1 (configuration not stated) | -2 | 108 | 90 | 106
N#C/C(=C\c1ccccc1)C(=O)N1C(=O)c2ccccc2S1(=O)=O | 3 | 106 | 100 | /
CN(C)c1nc(N)nc(-c2ccco2)n1 | -7 | 101 | 50 | 99
O=C(O)CN(Cc1ccccc1)C(=O)C(F)(F)F | -35 | 94 | 88 | /
Cc1ccc2nc(SCC(=O)N(C)c3ccccc3)nc(=O)n2c1 | -22 | 87 | 94 | 99
Cc1cc(C)n(-c2ccc(CSc3nnc(C4CC4)n3Cc3ccccc3)cc2)n1 | -15 | 79 | 89 | /
Cc1[nH]c(C)c(S(=O)(=O)N2CCC(C(=O)NCc3ccc(Cl)cc3)CC2)c1C(=O)N1CCCC1 | 12 | / | / | 103
CCC(CC)C(=O)Nc1c(C(=O)N2CCN(c3ccccc3)CC2)oc2ccccc12 | 4 | 74 | 85 | 106
CCn1c(C)nc2cc(C(=O)OC)ccc21 | -15 | 120 | 83 | /
Cc1nn(-c2cc(N(C)C)ncn2)c(C)c1CCC(=O)N1CCOCC1 | -29 | / | / | 99
C=CCC1(NCc2ccco2)CCN(C)CC1 | -20 | 92 | 83 | 103
N#Cc1cccc(C(=O)NCc2ccccc2)c1 | -18 | 98 | 98 | /
COC(=O)[C@H](C)NC(=O)c1cccc(C)c1 | -5 | 97 | 94 | /

Looked up by structure from the entries so far, 2 records:
SMILES | HCMV NEC inh | Sa growth 42C | Sa growth 42C second temp | GIV-Gai inh
C=CCC1(NCc2ccco2)CCN(C)CC1 | -20 | 92 | 83 | 103
CC(=O)Nc1cccc(NC(=O)C2CC(=O)N(C3CCCCC3)C2)c1 (configuration not stated) | -2 | 108 | 90 | 106

(next part)
SMILES | HCMV NEC inh | Sa growth 42C | Sa growth 42C second temp | GIV-Gai inh
c1cc(-c2nc3ccccc3o2)cc(-c2nc3ccccc3o2)c1 | -9 | 96 | 79 | 98
CCCCC(=O)Nc1cccc(-c2nc(-c3ccccc3)no2)c1 | -24 | / | / | 101
CCCCC1(O)CC(C)N(C)CC1C (configuration not stated) | -19 | 97 | 99 | 102
O=C1Nc2ccccc2C12OCC1(CO2)COC2(OC1)C(=O)Nc1ccccc12 (configuration not stated) | -5 | / | / | 105&104
CC(NC(=O)c1ccc2c(c1)OCO2)c1ccccc1 (configuration not stated) | -21 | 87 | 83 | /
CCC(SC1=N/C(=C\c2cccnc2)C(=O)N1c1ccccc1)C(=O)N1CCOCC1 (configuration not stated) | -46 | 96 | 91 | 112
COc1ccc(Cn2cc[nH]c(=O)c2=O)cc1 | / | 84 | 86 | 102
CCc1ccc(S(=O)(=O)NCCc2cn3ccsc3n2)cc1 | / | 113 | 86 | 105
O=C(NC1=NCCS1)c1ccc(S(=O)(=O)N2CCCCCC2)cc1 | -3 | 88 | 98 | /
O=C(CN(C1CCCCC1)S(=O)(=O)c1ccccc1)N1CCCCC1 | 15 | 89 | 93 | 105
CCCSc1ncccc1C(=O)NCc1ccc2c(c1)OCO2 | 4 | 79 | 92 | 96
CCC(=O)N1c2ccc(S(=O)(=O)N3CCCCC3)cc2CC1C(=O)NCCCOC (configuration not stated) | -3 | / | / | 104
Cn1c(C2CCS(=O)(=O)C2)n[nH]c1=S (configuration not stated) | -18 | 101 | 89 | /
N#Cc1ccc(S(=O)(=O)NC2CCN(Cc3ccccc3)CC2)cc1 | 0 | 108 | 91 | 104
CC(C)(C)C(=O)OC[n+]1ccccc1 | 0 | 76 | 92 | 97
CC(=O)Nc1ccc(S(=O)(=O)n2nccc2-c2ccc(-c3cccs3)s2)cc1 | -2 | 109 | 91 | 101
CNC(=O)Nc1cc2c(cc1N1CCOCC1)n(C)c(=O)n2C | -9 | / | / | 102
Cc1ccc(NC(=O)NCc2noc3ccccc23)c(Br)c1 | -8 | / | / | 106
COc1ccc(CNC(=O)CSc2nc3ccc([N+](=O)[O-])cc3[nH]2)cc1 | -56 | / | / | 100
N#CC(C#N)=C1CCCN1C(=O)c1ccccc1 | -45 | 82 | 88 | /
CCN(CC)CCCNC(=O)c1ccc(CN2CC(=O)N3CCCCC3C2=O)cc1 (configuration not stated) | -24 | / | / | 101
CC1CCN(C(=O)COC(=O)c2ccc(NC(=O)CC3SC(N4CCCC4)=NC3=O)cc2)CC1 (configuration not stated) | -34 | 107 | 92 | /
Cc1onc(-c2ccccc2)c1C(=O)NCCOc1ccccc1 | -6 | 107 | 89 | 103
Cc1sc(Nc2ccccc2)nc1-c1ccc(Cl)cc1 | -2 | 123 | 90 | /
Cc1cccc(N2CCN(C(=O)Cn3ncc4c5ccccc5n(C)c4c3=O)CC2)c1C | -14 | 105 | 86 | 102
CCC1CSC(Nc2ccc(C)cc2)=N1 (configuration not stated) | -13 | 87 | 81 | /
Cc1cc(C)nc(SCCn2c(N3CCOCC3)nc3c2c(=O)[nH]c(=O)n3C)n1 | 4 | / | / | 105
CN(C)c1ccc(-c2nnc3sc(-c4cccnc4)nn23)cc1 | -16 | / | / | 83*
CCN(CCS(=O)(=O)c1ccc(Cl)cc1)C(=O)Nc1ccc(Cl)cc1 | -24 | 89 | 82 | 104
OCCN(Cc1ccccc1)Cc1c(Cl)cccc1Cl | -8 | 108 | 105 | 100
COc1cccc(OC)c1Cn1nnc2c(=O)[nH]c(C(=O)Nc3ccccc3Cl)nc21 | 4 | 86 | 69 | 107
Cc1ccc(Cn2c(CN3CCC(C(=O)NCc4ccccc4C)CC3)cc3ccccc32)cc1 | / | 117 | 88 | 95
O=c1oc(-c2cccc(C(F)(F)F)c2)nc2cccc(Cl)c12 | / | 101 | 81 | 97
CCOc1ccc(OCC)c(NC(=O)CCS(=O)(=O)c2ccc(C)cc2)c1 | / | 97 | 82 | 104
CCc1cccc(C)c1NC(=O)CCCn1nc(C)c2sc3ccccc3c2c1=O | -24 | 108 | 83 | 105
O=C(NCCN1CCCC1)C1c2ccccc2Oc2ccccc21 | -28 | 85 | 91 | 103
Cc1cc2c(cc1S(=O)(=O)Nc1ccc(C(C)C)cc1)OCCN2C | / | 123 | 101 | 103
Cc1ccc(C(=O)NC2CCCCCCC2)cc1S(=O)(=O)N1CCOCC1 | -6 | 92 | 93 | /
CCc1ccc(NC(=O)C2CCN(c3nc(-c4ccc(OC)cc4)no3)CC2)cc1 | / | 91 | 87 | 103
CC(=O)N(/N=C1\Sc2ccccc2C1=O)c1ccccc1 | / | 81 | 79 | 100
c1ccc(Nc2cn[nH]n2)cc1 | -38 | 101 | 64 | /
O=C1CCSc2ccc(S(=O)(=O)NCc3cccnc3)cc2N1 | -10 | / | / | 108
COC(CNC(=O)/C=C1\Sc2ccccc2NC1=O)OC | / | 100 | 94 | 101
COc1ccc(F)cc1-c1cc(N2CCN(S(=O)(=O)c3cnn(C(F)F)c3C)CC2)ncn1 | -34 | / | / | 100
CCCn1c(SCc2csc(NC(C)=O)n2)n[nH]c1=O | -17 | 113 | 89 | /
Cc1cc(-n2nc3ccccc3n2)c2oc(SCC(=O)NC(C)(C)C)nc2c1 | -5 | 97 | 95 | 103
COc1ccc(-c2nc3sc(CCNC(=O)c4cccc(C(F)(F)F)c4)c(C)n3n2)cc1 | / | 135 | 90 | 100
COc1cc(CNc2ccccc2)ccc1OCC(N)=O | -4 | 85 | 94 | /
Cn1nc(C(=O)Nc2ccc(F)cc2)c2c1-c1cc(Cl)ccc1SC2 | -20 | / | / | 101
Cc1oc2ccc(O)cc2c1C(=O)O | / | 72 | 79 | 96
Cc1ccccc1NC(=O)Cc1nc(COC(=O)c2nccnc2N)cs1 | -30 | 115 | 88 | /
NC(=O)c1ccccc1N=Cc1ccc2ccccc2c1 | -11 | 95 | 86 | /
O=C(NCCCn1ccnc1)c1cn(-c2ccccc2)nc1-c1ccccc1 | 20 | 100 | 96 | /
O=C(O)CC1(CC(=O)NCc2ccc3c(c2)OCO3)CCCCC1 | -10 | 101 | 90 | /
O=C1CCSc2c1cccc2C(=O)Nc1ccccc1F | -16 | 86 | 84 | 105
COc1ccc2c(CNCCc3ccc(SC)cc3)c(C(=O)O)n(Cc3ccc(F)cc3)c2c1 | / | 100 | 115 | 106
Cc1ccc(NC(=O)CCn2nc(C)c(S(=O)(=O)N3CCCCC3)c2C)cc1Cl | / | 148 | 96 | 107
CO/N=C(/C(=O)N[C@@H]1C(=O)N2C(C(=O)O)=C(CSc3nc(=O)c(O)nn3C)CS[C@H]12)c1csc(N)n1 | -34 | -0.9* | -0.5* | /
CC1=C(C(=O)OCC2CCCO2)C(c2coc3ccccc3c2=O)C2=C(CC(C)(C)CC2=O)N1 (configuration not stated) | -13 | / | / | 103
O=C(CCN1C(=O)/C(=C2\SC(=S)N(CCC(=O)Nc3nccs3)C2=O)SC1=S)Nc1nccs1 | -36 | / | / | 98
Going on with the list:
SMILES | HCMV NEC inh | Sa growth 42C | Sa growth 42C second temp | GIV-Gai inh
Cc1ccc(S(=O)(=O)CC(=O)Nc2ccc(F)c(F)c2F)cc1 | 0 | 100 | 94 | 103
CCOC(=O)c1ccc(CC2SC(=Nc3ccc(CC)cc3)NC2=O)cc1 (configuration not stated) | / | 130 | 89 | 100
N/C(=N\O)c1ccc(OCc2ccccc2F)cc1 | 1 | 109 | 90 | 110
CN(C)CCS(=O)c1ccccc1 (configuration not stated) | 9 | 107 | 81 | 103
CCN(C(=O)c1ccc2c(c1)CCO2)c1cccc2ccccc12 | -32 | 100 | 88 | 97
CC(C)N1C(=O)/C(=C\c2cccs2)SC1=S | -8 | 78 | 111 | 97
O=S(=O)(c1ccc2ccccc2c1)n1nc(-c2ccco2)nc1NCc1ccc(F)cc1 | 11 | 90 | 91 | 109
Cc1ccc(/C=C/c2onc3c(=O)n(C)nc(C)c23)cc1 | -24 | 92 | 93 | 102
CCc1ccc(N2C(=O)CN(CC(=O)OC)C2=S)cc1 | / | 88 | 96 | 100

Gathered by group, those above with an aryl thioether with sulfur outside any ring
SMILES | HCMV NEC inh | Sa growth 42C | Sa growth 42C second temp | GIV-Gai inh
CCn1c(CNC(=O)Cc2ccc(OC)cc2)nnc1SCCOc1ccccc1 | 9 | 107 | 105 | 107
NC(=O)CSc1nnc(CSc2nc3ccccc3s2)n1Cc1ccccc1 | -19 | 104 | 91 | /
Cc1ccc2nc(SCC(=O)N(C)c3ccccc3)nc(=O)n2c1 | -22 | 87 | 94 | 99
Cc1cc(C)n(-c2ccc(CSc3nnc(C4CC4)n3Cc3ccccc3)cc2)n1 | -15 | 79 | 89 | /
CCCSc1ncccc1C(=O)NCc1ccc2c(c1)OCO2 | 4 | 79 | 92 | 96
COc1ccc(CNC(=O)CSc2nc3ccc([N+](=O)[O-])cc3[nH]2)cc1 | -56 | / | / | 100
Cc1cc(C)nc(SCCn2c(N3CCOCC3)nc3c2c(=O)[nH]c(=O)n3C)n1 | 4 | / | / | 105
CCCn1c(SCc2csc(NC(C)=O)n2)n[nH]c1=O | -17 | 113 | 89 | /
Cc1cc(-n2nc3ccccc3n2)c2oc(SCC(=O)NC(C)(C)C)nc2c1 | -5 | 97 | 95 | 103
COc1ccc2c(CNCCc3ccc(SC)cc3)c(C(=O)O)n(Cc3ccc(F)cc3)c2c1 | / | 100 | 115 | 106
CO/N=C(/C(=O)N[C@@H]1C(=O)N2C(C(=O)O)=C(CSc3nc(=O)c(O)nn3C)CS[C@H]12)c1csc(N)n1 | -34 | -0.9* | -0.5* | /
